Screens: PubChem, Broad Institute
HIV Env fusion – blocks HIV Env-driven cell-cell fusion. HeLa-JRFL Env/CEM21 cell fusion, luciferase. inhibition, % at 12.3 µM. hit rate 1.1% among 360,000;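 active = mean replicate inhibition score of at least 50 and every replicate individually at or above 50; inconclusive = only one of the two criteria met; inactive = mean below 50 and not all replicates reaching 50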;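 note: 0% = plate neutral controls and 100% = maraviroc near 300 nM; one replicate is shown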
UUG fidelity – modulators of start codon recognition fidelity in yeast. S. cerevisiae UUG-firefly luciferase reporter, luminescence/redox ratio. activity score, % at 18.7 µM. hit rate 0.13% among 350,000. AID 602363;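 active = replicate mean at a twofold rise or more, about +100% in these data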;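 note: firefly luciferase made from a UUG start codon reports start codon fidelity; reporter light over untreated wells divided by growth signal over untreated wells; some hits fall short of that in this replicate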
* marks the source's active call; other numbers are inactive results; u = inconclusive; [ ] = remark or other dose. Some of the compounds tested; count on the stated rates, not on these rows.

HIV Env fusion | UUG fidelity | smiles
40[16.7 µM] | 4 | Cc1ccc(S(=O)(=O)N(C)C[C@H]2OCCCC[C@H](C)Oc3ccc(NC(=O)CCCN(C)C)cc3C(=O)N([C@@H](C)CO)C[C@H]2C)cc1
-28[16.7 µM] | 13 | C[C@@H]1CN([C@H](C)CO)C(=O)c2cccc(NS(=O)(=O)c3ccc(Cl)cc3)c2O[C@@H]1CN(C)C(=O)Nc1ccc2c(c1)OCO2
6[16.7 µM] | 21 | O=C(NCC[C@@H]1CC[C@H](NC(=O)c2cnccn2)[C@@H](CO)O1)Nc1ccc(Cl)cc1
-4[16.7 µM] | -1 | CCC(=O)Nc1ccc2c(c1)OC[C@@H](C)N(C(=O)c1ccccc1F)C[C@H](C)[C@@H](OC)CN(C)C2=O
-6[16.7 µM] | -1 | CC(C)NC(=O)N[C@@H]1CC[C@@H](CCNC(=O)C2CCC2)O[C@@H]1CO
1[16.7 µM] | -4 | C[C@H]1CN([C@@H](C)CO)C(=O)c2cc(NC(=O)NC3CCCCC3)ccc2O[C@H]1CN(C)Cc1ccncc1
17[16.7 µM] | -1 | C[C@H](CO)N1C[C@H](C)[C@H](CN(C)C(=O)Nc2ccc3c(c2)OCO3)Oc2c(NC(=O)NC3CCCCC3)cccc2C1=O
4[16.7 µM] | 6 | CN1C(=O)c2cc(NC(=O)Cc3cccs3)ccc2OC[C@@H]2O[C@H](CC(=O)NCC3CC3)CC[C@@H]21
11[16.7 µM] | -7 | Cc1ccc(S(=O)(=O)N(C)C[C@H]2OCCCC[C@H](C)Oc3ccc(NS(=O)(=O)c4c(C)noc4C)cc3C(=O)N([C@@H](C)CO)C[C@@H]2C)cc1
8[16.7 µM] | -8 | COc1ccc(NC(=O)Nc2ccc3c(c2)C(=O)N([C@@H](C)CO)C[C@H](C)[C@H](CN(C)S(=O)(=O)c2cn(C)cn2)O3)cc1
u | -5 | COC(=O)[C@H](Cc1ccccc1)N1CC(C)(OC)O[C@@H](Cc2ccccc2)[C@H]1/C=C/C1CC1 (stereo partly drawn)
-16[16.7 µM] | 6 | CC(C)NC(=O)N(C)C[C@H]1OCCCC[C@@H](C)Oc2ccc(NS(=O)(=O)c3ccc(F)cc3)cc2C(=O)N([C@H](C)CO)C[C@H]1C
-44[16.7 µM] | 0 | COc1ccc(NC(=O)N(C)C[C@H]2OCCCC[C@@H](C)Oc3ccc(NC(=O)Cc4ccccc4)cc3C(=O)N([C@@H](C)CO)C[C@H]2C)cc1
-6[16.7 µM] | 13 | C[C@H](CO)N1C[C@H](C)[C@H](CN(C)C(=O)Nc2ccccc2)Oc2ccc(NC(=O)C3CCCCC3)cc2CC1=O
25[16.7 µM] | 16 | Cc1noc(C)c1NC(=O)Nc1cccc2c1O[C@H](CN(C)C(=O)Nc1ccc(F)cc1)[C@@H](C)CN([C@H](C)CO)C2=O
11[16.7 µM] | 2 | Cc1ccc(S(=O)(=O)N(C)C[C@@H]2Oc3ccc(NS(=O)(=O)c4cccs4)cc3C(=O)N([C@@H](C)CO)C[C@@H]2C)cc1
-14[16.7 µM] | 32 | Cc1ccc(S(=O)(=O)N(C)C[C@@H]2OCCCC[C@H](C)Oc3ccc(NS(C)(=O)=O)cc3C(=O)N([C@H](C)CO)C[C@H]2C)cc1
-1[16.7 µM] | -3 | COc1ccc(S(=O)(=O)N(C)C[C@H]2Oc3ccc(NC(=O)Nc4c(C)noc4C)cc3CC(=O)N([C@@H](C)CO)C[C@@H]2C)cc1
-6[16.7 µM] | 8 | Cc1noc(C)c1NC(=O)Nc1ccc2c(c1)C(=O)N([C@@H](C)CO)C[C@H](C)[C@@H](CN(C)C(=O)Nc1ccc(F)cc1)O2
3[16.7 µM] | -11 | Cc1ccc(S(=O)(=O)N[C@H]2C=C[C@H](CC(=O)NCc3ccncn3)O[C@@H]2CO)cc1
14[16.7 µM] | 3 | C/C=C/c1ccc2c(c1)O[C@@H](CN(C)S(=O)(=O)c1ccccc1OC)[C@@H](C)CN([C@@H](C)CO)S2(=O)=O
6[16.7 µM] | -12 | C[C@@H](NC(=O)C[C@@H]1CC[C@H](NC(=O)Nc2ccc3c(c2)OCO3)[C@H](CO)O1)c1ccccc1
-28[16.7 µM] | -6 | COc1ccc(S(=O)(=O)N(C)C[C@@H]2Oc3c(NC(=O)Nc4c(C)noc4C)cccc3C(=O)N([C@H](C)CO)C[C@@H]2C)cc1
-87[16.7 µM] | 18 | C[C@H](CO)N1C[C@H](C)[C@@H](CN(C)S(=O)(=O)c2cn(C)cn2)Oc2ccc(NC(=O)Cc3cn(C)c4ccccc34)cc2CC1=O
7[16.7 µM] | 1 | C[C@@H]1CN([C@H](C)CO)S(=O)(=O)c2ccc(C#CC3CC3)cc2O[C@@H]1CN(C)CC1CCOCC1
9[16.7 µM] | -16 | C[C@@H]1CN([C@H](C)CO)C(=O)c2cc(NC(=O)CCC(F)(F)F)ccc2O[C@@H]1CN(C)Cc1ccncc1
13[16.7 µM] | 7 | COc1ccccc1-c1cn(CC[C@H]2CC[C@@H](NC(=O)CCN3CCCCC3)[C@H](CO)O2)nn1
-3[16.7 µM] | -1 | C[C@H]1CCCCO[C@H](CN(C)S(=O)(=O)c2cn(C)cn2)[C@@H](C)CN([C@@H](C)CO)C(=O)c2cc(NS(=O)(=O)c3cn(C)cn3)ccc2O1
12[16.7 µM] | -1 | CCC(=O)N(C)C[C@H]1Oc2cc(C#CC3CCCCC3)ccc2S(=O)(=O)N([C@H](C)CO)C[C@H]1C
-16[16.7 µM] | 2 | CC(C)CC#Cc1cnc2c(c1)C(=O)N([C@@H](C)CO)C[C@H](C)[C@H](CN(C)C(=O)c1cnccn1)O2
-5[16.7 µM] | 1 | CNC[C@@H]1OCCCC[C@@H](C)Oc2ccc(NC(=O)Nc3c(C)noc3C)cc2C(=O)N([C@H](C)CO)C[C@H]1C
-14[16.7 µM] | -3 | C[C@H](NC(=O)C[C@@H]1CC[C@@H](NC(=O)C2CCC2)[C@@H](CO)O1)c1ccccc1
-16[16.7 µM] | -9 | CC(=O)Nc1ccc2c(c1)C(=O)N(C)[C@H]1CC[C@H](CC(=O)NCC3CC3)O[C@@H]1CO2
-25[16.7 µM] | 9 | CC(C)C#Cc1cnc2c(c1)C(=O)N([C@@H](C)CO)C[C@H](C)[C@@H](CN(C)Cc1ccccc1)O2
-13[16.7 µM] | 3 | O=C(Cc1ccccn1)NCC[C@@H]1CC[C@H](NS(=O)(=O)c2ccc(F)cc2)[C@H](CO)O1
-17[16.7 µM] | 18 | CNC[C@H]1OCCCC[C@@H](C)Oc2ccc(NC(=O)Nc3ccc4c(c3)OCO4)cc2C(=O)N([C@H](C)CO)C[C@H]1C
-22[16.7 µM] | 12 | COc1ccccc1-c1cnc2c(c1)C(=O)N([C@@H](C)CO)C[C@@H](C)[C@H](CN(C)Cc1cncnc1)O2
13[16.7 µM] | 0 | C[C@H]1CN([C@@H](C)CO)C(=O)c2cc(NS(=O)(=O)c3ccc(Cl)cc3)ccc2O[C@H]1CN(C)Cc1ccccc1
-6[16.7 µM] | 5 | CCC(=O)N(C)C[C@@H]1Oc2cc(C#C[C@@H](C)O)ccc2S(=O)(=O)N([C@H](C)CO)C[C@H]1C
-11[16.7 µM] | -8 | O=C(Cc1ccccn1)N[C@@H]1C=C[C@@H](CC(=O)N2CCCCC2)O[C@H]1CO
-5[16.7 µM] | 14 | CCCN(C)C[C@@H]1Oc2cc(/C=C/c3ccccc3)ccc2S(=O)(=O)N([C@@H](C)CO)C[C@@H]1C
-11[16.7 µM] | -5 | C[C@@H]1CN([C@H](C)CO)C(=O)c2cccc(NC(=O)C3CCOCC3)c2O[C@H]1CN(C)S(=O)(=O)c1ccc(F)cc1
35[16.7 µM] | 19 | O=C(Nc1cc(F)ccc1F)N[C@H]1C=C[C@@H](CC(=O)N2CCc3ccccc3C2)O[C@H]1CO
8[16.7 µM] | 16 | CC(C)C#Cc1cnc2c(c1)C(=O)N([C@@H](C)CO)C[C@@H](C)[C@H](CN(C)Cc1ccccc1)O2
30[16.7 µM] | 3 | Cc1ccc(S(=O)(=O)Nc2ccc3c(c2)C(=O)N([C@@H](C)CO)C[C@@H](C)[C@@H](CN(C)Cc2ccc(Cl)c(Cl)c2)OCCCC[C@@H](C)O3)cc1
-1[16.7 µM] | -14 | Cc1ccc(S(=O)(=O)N[C@@H]2C=C[C@@H](CC(=O)NCc3ccncn3)O[C@@H]2CO)cc1
-7[16.7 µM] | 43 | C[C@H]1CCCCO[C@H](CN(C)S(=O)(=O)c2ccc(F)cc2)[C@@H](C)CN([C@@H](C)CO)C(=O)c2cc(NS(=O)(=O)c3ccccc3)ccc2O1
17[16.7 µM] | 11 | C/C=C/c1ccc2c(c1)O[C@H](CN(C)Cc1cncnc1)[C@H](C)CN([C@H](C)CO)S2(=O)=O
15[16.7 µM] | 11 | C[C@@H]1CN([C@@H](C)CO)C(=O)c2cc(C#CC3(O)CCCC3)cnc2O[C@@H]1CN(C)C(=O)Cc1cccnc1
8[16.7 µM] | 1 | C[C@@H]1CCCCO[C@H](CN(C)Cc2ccc(C(=O)O)cc2)[C@H](C)CN([C@H](C)CO)C(=O)c2cc(NC(=O)NC3CCCCC3)ccc2O1
-2[16.7 µM] | -6 | C[C@H]1CN([C@@H](C)CO)C(=O)Cc2cc(NC(=O)Nc3ccccc3)ccc2O[C@@H]1CN(C)S(=O)(=O)c1ccccc1
u | 2 | COc1ccc(S(=O)(=O)Nc2cccc3c2O[C@H](CN(C)Cc2ccc(Cl)c(Cl)c2)[C@H](C)CN([C@@H](C)CO)C3=O)cc1
2[16.7 µM] | -27 | Cc1noc(C)c1NC(=O)N(C)C[C@@H]1Oc2c(cccc2N(C)C)C(=O)N([C@H](C)CO)C[C@@H]1C
-17[16.7 µM] | -2 | C[C@H]1CN([C@@H](C)CO)S(=O)(=O)c2ccc(C#CC(C)(C)O)cc2O[C@@H]1CN(C)C(=O)CC1CC1
9[16.7 µM] | -2 | C[C@@H]1CN([C@@H](C)CO)C(=O)Cc2cc(NC(=O)C3CC3)ccc2O[C@@H]1CN(C)Cc1ccc(Oc2ccccc2)cc1
8[16.7 µM] | 17 | C[C@@H]1CN([C@@H](C)CO)C(=O)c2cc(NC(=O)c3ccncc3)ccc2O[C@@H](C)CCCCO[C@H]1CN(C)C
8[16.7 µM] | 1 | C/C=C/c1cnc2c(c1)C(=O)N([C@@H](C)CO)C[C@H](C)[C@@H](CN(C)CC1CCOCC1)O2
15[16.7 µM] | -5 | CO[C@H]1CN(C)C(=O)c2ccc(NC(=O)Nc3ccc(F)cc3)cc2OC[C@@H](C)NC[C@@H]1C
-4[16.7 µM] | -16 | C[C@H](O)C#Cc1ccc2c(c1)O[C@H](CN(C)CC1CC1)[C@H](C)CN([C@@H](C)CO)S2(=O)=O
1[16.7 µM] | -7 | C[C@H]1CN([C@@H](C)CO)C(=O)c2cccc(NS(=O)(=O)c3cn(C)cn3)c2O[C@H]1CN(C)C(=O)Nc1ccccc1

More compounds:
HIV Env fusion | UUG fidelity | smiles
-15[16.7 µM] | 2 | C[C@@H]1CN([C@@H](C)CO)C(=O)c2cc(NS(=O)(=O)c3ccccc3)ccc2O[C@@H](C)CCCCO[C@@H]1CN(C)C(=O)Nc1ccccc1
3[16.7 µM] | 4 | CCCNC(=O)N(C)C[C@H]1Oc2ncc(-c3ccc(F)cc3)cc2C(=O)N([C@H](C)CO)C[C@@H]1C
13[16.7 µM] | -15 | CO[C@H]1CN(C)C(=O)c2cc(NC(=O)c3ccccc3F)ccc2OC[C@@H](C)N(C)C[C@H]1C
-4[16.7 µM] | -25 | CN(C)C(=O)C[C@@H]1CC[C@H](NC(=O)Nc2cccc(F)c2)[C@@H](CO)O1
-33[16.7 µM] | 17 | COc1ccc(NC(=O)N(C)C[C@@H]2OCCCC[C@H](C)Oc3ccc(NS(=O)(=O)c4ccc(C)cc4)cc3C(=O)N([C@H](C)CO)C[C@H]2C)cc1
-25[16.7 µM] | 23 | CC(C)NC(=O)Nc1ccc2c(c1)C(=O)N([C@H](C)CO)C[C@@H](C)[C@H](CN(C)S(=O)(=O)c1ccccc1)OCCCC[C@@H](C)O2
18[16.7 µM] | 12 | CCNC(=O)C[C@H]1CC[C@H]2[C@H](COc3ccc(NC(=O)c4cccc(OC)c4)cc3C(=O)N2C)O1
14[16.7 µM] | 18 | COc1cccc(C#Cc2ccc([C@H]3[C@@H](CO)N(C(=O)C4CC4)[C@H]3C#N)cc2)c1
-5[16.7 µM] | -5 | C[C@@H]1CN([C@H](C)CO)C(=O)c2cccc(NC(=O)c3ccc(-c4nccs4)cc3)c2O[C@@H]1CN(C)CC1CCCCC1

One compound at a time (already shown). Values in the order: HIV Env fusion	UUG fidelity
CCNC(=O)C[C@H]1CC[C@H]2[C@H](COc3ccc(NC(=O)c4cccc(OC)c4)cc3C(=O)N2C)O1 as listed: 18[16.7 µM]	12
C[C@@H]1CN([C@@H](C)CO)C(=O)c2cc(NS(=O)(=O)c3ccccc3)ccc2O[C@@H](C)CCCCO[C@@H]1CN(C)C(=O)Nc1ccccc1 as listed: -15[16.7 µM]	2
COc1cccc(C#Cc2ccc([C@H]3[C@@H](CO)N(C(=O)C4CC4)[C@H]3C#N)cc2)c1 as listed: 14[16.7 µM]	18
COc1ccc(NC(=O)N(C)C[C@@H]2OCCCC[C@H](C)Oc3ccc(NS(=O)(=O)c4ccc(C)cc4)cc3C(=O)N([C@H](C)CO)C[C@H]2C)cc1 as listed: -33[16.7 µM]	17
CCCNC(=O)N(C)C[C@H]1Oc2ncc(-c3ccc(F)cc3)cc2C(=O)N([C@H](C)CO)C[C@@H]1C as listed: 3[16.7 µM]	4
